Bioassay records as filed in PubChem.
MgrA-DNA mod: S. aureus MgrA activity modulators, primary screen, biochemical, S. aureus Newman, fluorescence polarization | MgrA-DNA binding | inhibition, %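 (about 10 µg/mL by stock and volumes)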 | 84,000 compounds, 0.13% hits;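 active = above 50% in either of two replicates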;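 also: 0% = protein plus DNA without compound and 100% = DNA alone without protein; higher means less MgrA bound to DNA so lower polarization; one replicate is shown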
S aureus helic: inhibitors of S. aureus replicative helicase, primary screen, biochemical, fluorescence unwinding readout. purified S. aureus helicase, fluorescence unwinding assay; about half of the hits fall short of the stated cut. inhibition, %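 (tested at about 80 µM)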. 120,000 compounds, 0.05% hits;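 active = both duplicates at 50% or more, or one of them with a favoured structure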;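 also: 0% = mean of negative control wells and 100% = mean of positive control wells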
Starred values were filed as active, the others as inactive; · = not tested or not shown.

The line under a structure holds: MgrA-DNA mod	S aureus helic
- Cc1cc(C)cc(N2C(=S)N(c3ccccc3)C3CS(=O)(=O)CC32)c1 (stereo not drawn)
    -2.5	5.0
- CCOC(=O)/C(C#N)=C\C1=C(N2CCCC2)CC(C)(C)OC1
    1.7	-1.0
- O=C(c1coc2ccccc2c1=O)N1CCN(c2ccccc2)CC1
    ·	-18.0
- CCc1ccc2c(c1)S(=O)(=O)C(C(F)(F)F)CO2 (stereo not drawn)
    42.0	22.0
- CC(C)(C)c1csc(-c2ccc(/C=C(\C#N)S(C)(=O)=O)cc2)n1
    -1.5	·
- O=C(NCc1cccc(C(F)(F)F)c1)c1ccc(S(=O)(=O)NCc2ccco2)cc1
    ·	5.0
- CCN(CC)S(=O)(=O)c1cccc(C(=O)N2CCc3ccccc32)c1
    ·	1.0
- c1ccc(CCc2nn3c(COc4ccccc4)nnc3s2)cc1
    5.3	11.0
- Cc1ccc(NC(=O)C(C)NC(=O)OCc2ccccc2)cc1C (stereo not drawn)
    ·	6.0
- O=C(O)C(c1ccccc1)n1cnnn1 (stereo not drawn)
    -3.9	6.0
- CCCc1ccc(-c2cc(N)n[nH]2)cc1
    -0.2	3.0
- O=C(/C=C/c1ccc(F)c(Cl)c1)N1CCN(C(=O)C2CCCO2)CC1 (stereo not drawn)
    ·	21.0
- CCC(C(=O)Nc1c(C)n(C)n(-c2ccccc2)c1=O)c1ccccc1 (stereo not drawn)
    -2.8	10.0
- O=C1OC(Nc2ccc(F)cc2F)c2ccccc21 (stereo not drawn)
    -0.7	·
- COC(=O)c1ccccc1NC(=O)CSc1nc2ccsc2c(=O)n1Cc1ccc(C)cc1
    0.5	10.0
- CCOc1ccccc1OCC(=O)NC(C)c1ccccc1 (stereo not drawn)
    1.9	0.0
- Brc1ccc(C2=Nn3c(Cn4nnc5ccccc54)nnc3SC2)cc1
    10.9	·
- Cc1ccc(CNc2ccc(C(=O)O)cc2)cc1
    0.5	-9.0
- O=S(=O)(c1ccc2c(c1)OCCO2)N1c2cccc3cccc(c23)S1(=O)=O
    ·	-8.0
- CC(C)(C)NC(=O)/C(C#N)=C/c1ccc(OC(F)F)cc1
    ·	-6.0

The last 3 records of the part above open the next one:
The line under a structure holds: MgrA-DNA mod	S aureus helic
- Cc1ccc(CNc2ccc(C(=O)O)cc2)cc1
    0.5	-9.0
- O=S(=O)(c1ccc2c(c1)OCCO2)N1c2cccc3cccc(c23)S1(=O)=O
    ·	-8.0
- CC(C)(C)NC(=O)/C(C#N)=C/c1ccc(OC(F)F)cc1
    ·	-6.0
- COc1ccccc1N=P12CN3CN(CN(C3)C1)C2
    ·	8.0
- Cc1ccc(N2CCN(c3ccc(C)cc3)C2c2ccc(C)o2)cc1
    0.0	4.0
- CCCCCCCC/C=C\CCCCCCCC(N)=O
    0.9	·
- N#Cc1ccc(N2CCN(C(=O)c3ccco3)CC2)cc1
    -0.8	·
- Cc1ccc2oc(=O)c3cc(C(=O)NC4CCCC4)sc3c2c1
    5.1	17.0
- S=c1[nH]n(-c2ccc(Cl)cc2)c(=S)s1
    -2.5	9.0
- O=C(O)CCc1nn2c(=O)c3ccccc3nc2s1
    -0.2	-3.0
- Cc1ccc2nc(-c3cc4ccccc4o3)cc(C(=O)O)c2c1
    ·	28.0
- Cc1ccc(C)n1-c1ccc(C(=O)OC2CCCCC2=O)cc1 (stereo not drawn)
    ·	11.0
- COc1ccc(S(=O)(=O)Nc2ncccc2OCc2cc(F)cc(F)c2)cc1
    -0.8	·
- Cc1cc(C)c2c(N)c(S(=O)Cc3ccc(Cl)cc3)sc2n1 (stereo not drawn)
    -1.1	8.0
- CN(CC(=O)N1CCN(Cc2ccc3c(c2)OCO3)CC1)S(=O)(=O)c1cc(Cl)ccc1Cl
    1.3	6.0
- Cc1[nH]c2ccccc2c1N=CN(C)C
    -0.6	19.0
- O=C(Cn1nnc(-c2ccc(Cl)cc2)n1)NCCCN1CCOCC1
    -1.2	1.0
- CC(=O)NCc1nc2ccccc2n1CC(C)C
    ·	-24.0
- O=C(NNc1ccccc1)c1cnn2c(C(F)(F)F)cc(C(F)(F)F)nc12
    ·	11.0
- CC1(C)C=Cc2c(nc3ccccc3c2N)C1
    -1.0	11.0
- CCCCS(=O)(=O)NNc1cc(C(F)(F)F)ccc1Cl
    ·	-63.0
- COc1cc2ccc(=O)oc2c(O)c1OCC=C(C)C
    -0.8	1.0
- O=C(O)c1ccc(CNc2ccccc2)cc1
    0.9	-3.0
- COc1ccc(/C=C2\SC(=Nc3ccc(N4CCOCC4)cc3)N(C)C2=O)cc1
    -1.8	19.0
- CC1Oc2ccccc2C=C1/C=C/C(=O)O (stereo not drawn)
    2.4	13.0
- Cc1ccc(COc2coc(CO)cc2=O)cc1
    0.1	·
- Cn1cc(Br)c(N2C(=O)C=CC2=O)n1
    -3.1	·
- O=C(COc1ncnc2c(Cl)cc(Cl)cc12)c1ccc[nH]1
    ·	2.0
- O=C(Nc1ccc(S(=O)(=O)C(F)F)cc1)c1ccccc1
    ·	-3.0
- CCn1c(C(=O)NC2CCC(C)CC2)cc2sccc21 (stereo not drawn)
    -1.8	10.0
- CCOC(=O)c1c(NC(=O)CSc2cc(C)c3ccccc3n2)sc2c1CCC2
    -3.2	16.0
- CC1CN(C(=O)CCC(=O)NC2CCCC(C)C2C)c2cc(Cl)ccc2O1 (stereo not drawn)
    1.6	-11.0
- COCCCNC(=S)Nc1ccc(C)cc1C
    -1.4	·
- CCc1ccc(NC(=O)Nc2cccs2)cc1
    -0.3	10.0
- Cc1nn(C(=O)C2CCCN2S(=O)(=O)c2ccccc2)c(C)c1Sc1ccccc1 (stereo not drawn)
    1.6	6.0
- CC(C)(C)OC(=O)N1CCC(CNC(=O)c2cccs2)CC1
    -3.6	·
- Cn1c(SCc2ccc(F)c3ccccc23)nc2ccccc2c1=O
    -1.5	15.0
- Nc1ccccc1C(=O)N/N=C/c1cccc2ccccc12
    -3.1	·
- C=CCC1C(C)=NN(C(=O)c2ccc(Cl)cc2)C1(C)O (stereo not drawn)
    -4.0	18.0
- Cc1ccc(NC(=O)CN(C)c2ccc(C(F)(F)F)cn2)cc1
    ·	-11.0
- COc1cc(NC(=O)COc2ccccc2F)cc(OC)c1OC
    1.6	-8.0
- O=C(NCCc1ccccc1)c1nnc(-c2ccccc2)o1
    1.1	-13.0
- CN(C)C(=S)Cc1ccc(Cl)cc1
    ·	-13.0

2 compounds drawn at random from those above:
The line under a structure holds: MgrA-DNA mod	S aureus helic
- CCCc1ccc(-c2cc(N)n[nH]2)cc1
    -0.2	3.0
- CCCCS(=O)(=O)NNc1cc(C(F)(F)F)ccc1Cl
    ·	-63.0

Reformatted: entries from further up
Molecule | MgrA-DNA mod | S aureus helic
Cn1cc(Br)c(N2C(=O)C=CC2=O)n1 | -3.1 | ·
O=C(COc1ncnc2c(Cl)cc(Cl)cc12)c1ccc[nH]1 | · | 2.0
O=C(Nc1ccc(S(=O)(=O)C(F)F)cc1)c1ccccc1 | · | -3.0

Next section
The line under a structure holds: MgrA-DNA mod	S aureus helic
- CNS(=O)(=O)Cc1ccccc1CN
    ·	-7.0
- CCCSc1nnc(-c2c[nH]c3ccccc23)n1CC
    0.4	-6.0
- CN1C(=S)NC(C)(C)CC1(C)O (stereo not drawn)
    -3.2	-3.0
- Cc1cc(-c2ccc(C)c(S(=O)(=O)N3CCC(c4ccccc4)C3)c2)on1 (stereo not drawn)
    ·	6.0
- c1ccc(-c2[nH]nc(-c3ccc4c(c3)OCO4)c2-c2nc3ccccc3[nH]2)cc1
    ·	-11.0
- CCc1nnc(NC(=O)CN2C(=O)/C(=C/c3ccc(OC)c(OC)c3)SC2=S)s1
    -1.1	·
- CC1(C)CC(NCc2cccnc2)=CC(=C(C#N)C#N)C1
    ·	-5.0
- CCn1c(O)c(C2=NC(=S)NC2=O)c2ccccc21
    -3.8	11.0
- Cc1nc2ncnn2c(N2CCCCC2)c1Cl
    -3.0	-2.0
- Cc1ccc(C(=O)Nc2nn(C)c3cccc(F)c23)cc1
    -1.5	·
- O=C(O)/C=C/C(=O)N1CCN(c2ncccc2C(F)(F)F)CC1
    -2.5	·
- O=S(=O)(c1ccc(Oc2ncnc3c2oc2ccccc23)cc1)N1CCOCC1
    ·	17.0
- COc1ccc(Cn2nnnc2CN2CCN(C)CC2)cc1
    11.3	7.0
- O=C1c2ccccc2-c2nc3ncnn3c(-c3ccc4c(c3)OCO4)c21
    -0.6	-1.0
- CCOC(=O)CNc1cccc(C(F)(F)F)c1
    -1.5	6.0
- COc1ccccc1-c1cc(N)n[nH]1
    ·	7.0
- O=c1c(O)c(-c2ccc(F)cc2)oc2cc(Cl)ccc12
    3.5	-5.0
- COc1ccc(Br)cc1C(=O)O
    -3.3	12.0
- CSc1cc(C(C)(C)C)[nH]n1
    -1.0	·
- CC(=O)Nc1nc(CC(=O)c2ccccc2)cs1
    ·	11.0
- CN(C)c1ccc(C(=O)c2ccccc2C(=O)O)c(O)c1
    ·	-33.0
- C/C(=N\NC(=O)c1cccnc1)c1ccc(Cl)s1
    ·	-1.0
- O=C1CCCN1c1ccc(C(=O)n2ccnc2)cc1
    -0.5	10.0
- N#Cc1c[nH]n2c(NC3CCCC3)c(-c3cccs3)nc12
    -0.6	7.0
- CCOC(=O)C1=C(CN2CCC(C(=O)OCC)CC2)NC(=O)NC1c1ccccc1 (stereo not drawn)
    ·	-17.0
- N#CC(C#N)=C(/C=C/c1ccccc1)C1CC1
    ·	14.0
- Cc1cc(N2CCOCC2)nc2ccc(NC(=S)NCCC(C)C)cc12
    4.8	13.0
- CCOC(=O)/C=C/c1ccco1
    21.1	17.0
- CCOC(=O)C1=C(CC)Nc2ccccc2N=C1N=Cc1c(O)[nH]c(=O)[nH]c1=O
    ·	-13.0
- O=S(=O)(c1ccc(OC(F)(F)F)cc1)N1CCC(O)(c2cccc(C(F)(F)F)c2)CC1
    ·	-11.0
- COc1ccc(OCCSc2nc3ccccc3s2)cc1
    1.5	4.0
- CN(C)S(=O)(=O)c1ccc2oc(NN)nc2c1
    ·	-2.0
- NC(=O)CSc1nc2ccccc2c(=O)n1-c1ccccc1
    -1.8	4.0
- Cc1cc(O)c(CN2CCN(C)CC2)c2oc(=O)c3ccccc3c12
    ·	14.0
- CC(C)CCNC(=O)c1cc2c(=O)[nH]c3ccccc3c2s1
    ·	9.0
- Cn1ccc(NC(=O)/C(C#N)=C/c2ccc(Cl)cc2)n1
    ·	6.0
- O=C(NCc1ccco1)/C(=C\c1ccc(Br)cc1)NC(=O)c1ccccc1
    1.7	3.0
- Oc1ccc(-c2ccccc2)cc1Br
    ·	9.0
- COc1ccccc1NC(=O)CC(NCc1ccccc1)C(=O)O (stereo not drawn)
    ·	-16.0
- O=C(CN1C(=O)c2ccccc2C1=O)Nc1ccc(S(=O)(=O)Nc2nccs2)cc1
    ·	-2.0
- CCOc1ccc(NC(=O)CC#N)cc1
    2.8	-24.0
- Cc1c2ccc(=O)ccc2c(C)n1C
    ·	4.0
- O=C(NCCc1ccccc1)C1CCCCC1C(=O)OCC(F)(F)F (stereo not drawn)
    1.6	-4.0
- O=C(O)C1Cc2c([nH]c3ccccc23)C(c2ccccc2)N1 (stereo not drawn)
    0.1	-8.0
- O=C1COc2cc(S(=O)(=O)CCC(=O)N3CCCCCC3)ccc2N1
    -0.7	-2.0
- CC(=O)N(Cc1ccccc1)C1CCCc2c1[nH]c1ccc(C)cc21 (stereo not drawn)
    0.0	-17.0
- CC(Oc1ccc(C(C)(C)C)cc1)C(N)=O (stereo not drawn)
    2.5	-10.0
- Cn1c(O)c(C=NCC2CCN(C(=S)Nc3ccccc3)CC2)c(=O)n(C)c1=O
    1.8	-3.0
- O=C(OCCN1C(=O)c2cccc3c(N4CCOCC4)ccc(c23)C1=O)c1cc(Cl)cc(Cl)c1
    0.7	·
- O=C(O)c1cccc(-c2cccs2)c1
    -3.5	·
- O=C(O)CCC(=O)NCc1csc2ccc(Cl)cc12
    1.4	·
- c1ccc(Nc2ccccc2)cc1
    ·	-6.0
- CCCc1nc(NCc2ccccc2)c(C#N)c2c1CCCC2
    2.1	13.0
- CCOC(=O)/C(N=Nc1ccc(C)cc1C)=C(\C)O
    0.2	·
- Cn1ncc2c1CS(=O)(=O)CC2=O
    -0.1	·
- CCOC(=O)c1ccc(NC(=O)/C=C/c2cccc(C(F)(F)F)c2)cc1
    -0.3	-9.0
- C1CCOC(CN2CCCC2)OC1
    ·	25.0
- COc1ccc(Nc2oc(-c3ccc(OC)cc3)nc2C#N)cc1
    1.8	10.0
- NC(=O)c1sc(-c2ccc(Cl)cc2)cc1NC(=O)CCC(=O)O
    -0.6	·
- Cc1ccc(NS(=O)(=O)c2cccc(C(=O)NN3CCOCC3)c2)cc1
    ·	11.0

New compounds follow.
The line under a structure holds: MgrA-DNA mod	S aureus helic
- CC(C)NC(=O)COc1ccc(Br)cc1
    ·	-9.0
- COc1ccccc1NC(=O)Cc1noc(CN(C)Cc2cccs2)n1
    ·	-11.0
- O=C(Cn1ncn2nc(-c3ccccc3)cc2c1=O)NCC1CCCO1 (stereo not drawn)
    ·	-3.0
- Cc1ccc(CC23CN4CCN(CC(C4)C2=O)C3)c(C)c1
    ·	5.0
- CCOC(=O)C1CCN(/C=C(\C#N)S(=O)(=O)c2ccccc2)CC1
    -2.2	·
- O=C(O)CN1Cc2ccccc2C1
    -4.5	10.0
- CCc1nnc(NC(=O)C2=CN3CCS(=O)(=O)N=C3C=C2)s1
    ·	6.0
- O=C(CN=C1NS(=O)(=O)c2ccccc21)OCC(=O)c1ccccc1
    ·	6.0
- CCCNC(=O)NCc1ccc(N2CCCC2=O)cc1
    6.4	4.0
- Cc1cc(C(C)(C)C)cc(C)c1[N+](=O)[O-]
    -0.4	·
- Cn1nccc1N1C(=O)CCC1=O
    -1.0	·
- Cc1[nH]n(-c2nc3ccccc3s2)c(=O)c1C
    10.5	17.0

Only part of the results is shown; the hit share may differ from the screen's.
